# E coli growth: E. coli growth inhibition, primary screen, OD600; Escherichia coli growth, 23 h; hits give low values; OD600 absorbance (no concentration beside the values); 0.21% of 330,000 active;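 active means OD600 absorbance below the run mean of sample wells minus 3.6 SD, in any replicate, cut at about 0.56 in these data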;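 further: stock transfer was 300 nL into about 60 µL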
# HNF4A DNA FP: change in binding of human HNF4A to DNA, primary screen, biochemical, fluorescence polarization, FITC-DNA; 1 h; Hepatocyte nuclear factor 4-alpha (Homo sapiens), P41235; 0.3% of 360,000 active; activity change, % at 10 µM; in the data active means activity change above about 30%, passing the limit was not always enough;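 further: controls were the assay level and a saturating level of protein; the project sought stronger binding though the title names inhibitors; some compounds called inactive have numbers as strong as hits; positive values seem to mean higher polarization but the record does not say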
# ALR inh: inhibitors of human ALR sulfhydryl oxidase, primary screen, biochemical, H2O2 detection, HRP-luminol luminescence, single point. 3.8% of 290,000 active. inhibition, % (no concentration beside the values). purified ALR, DTT oxidation. FAD-linked sulfhydryl oxidase ALR (Homo sapiens), P55789;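 active means mean and each replicate at 75% or more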;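 further: stock transfer was 7.5 nL into about 7.5 µL; 0% = neutral wells and 100% = wells with inactivated enzyme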
# rRNA inh HTS: reduced GFP signal of wild-type E. coli, primary screen, bacterial rRNA inhibitor project, GFP/RFP fluorescence, OD600, single point | E. coli WT GFP vs humanized-ribosome RFP mutants, 24 h; hits give low values; DMSO median 0, no signal -100 | 1.6% of 350,000 active | GFP signal change (wild-type ribosome), % (no concentration beside the values);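 active means significant combined selectivity score with lowered wild-type GFP, culture density cut under 30%, mutant RFP and density less affected; inactive means any of these conditions unmet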; further: one replicate is shown; some compounds called inactive have numbers as strong as hits
# UCH37 inh: inhibitors of human UCH37 deubiquitinase, primary screen, biochemical, Ub-AMC cleavage, fluorescence | Ubiquitin carboxyl-terminal hydrolase isozyme L5 (Homo sapiens), Q9Y5K5 | purified proteasome/UCH37 | inhibition, % (no concentration beside the values) | 0.33% of 330,000 active | AID 588478, 2011;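 active means mean of two replicates above 20%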;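 further: 0% = compound-free wells with enzyme and 100% = wells lacking proteasome; stock transfer was 100 nL into about 20 µL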
# Target sequence (Q9Y5K5 whole entry, looked up): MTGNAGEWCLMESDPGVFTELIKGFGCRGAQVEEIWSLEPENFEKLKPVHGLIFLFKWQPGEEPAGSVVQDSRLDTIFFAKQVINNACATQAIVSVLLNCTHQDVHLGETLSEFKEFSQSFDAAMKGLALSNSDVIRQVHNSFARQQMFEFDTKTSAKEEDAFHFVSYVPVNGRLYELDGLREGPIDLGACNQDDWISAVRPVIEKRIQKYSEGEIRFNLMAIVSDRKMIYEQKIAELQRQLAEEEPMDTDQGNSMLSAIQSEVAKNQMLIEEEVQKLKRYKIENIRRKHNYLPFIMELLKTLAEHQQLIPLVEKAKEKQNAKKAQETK
#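 Test system – human UCH37 enzyme supplied as purified proteasome complex · Incubation – 30 min preincubation with enzyme, 25 min cleavage at room temperature · Detection – AMC fluorescence from Ub-AMC cleavage, excitation 355 nm, emission 460 nm · Benchmarks – no-proteasome wells (full inhibition) and compound-free wells (no inhibition)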
# B2AR ag: beta2AR agonists driving receptor internalization, primary screen, cell-based, FAP fluorogen, flow cytometry; Am2.2-beta2AR cells; reference of the scale not given here; response, % (no concentration beside the values); 0.43% of 340,000 active;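 active means response above a set limit, near 3 SD of response in nonfluorescent compounds, cut at about 42% in these data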;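 further: stock transfer was 100 nL into about 11 µL; a reference agonist was the positive control; negative values mostly stem from fluorescent compounds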
# Target sequence (P07550 whole entry, looked up): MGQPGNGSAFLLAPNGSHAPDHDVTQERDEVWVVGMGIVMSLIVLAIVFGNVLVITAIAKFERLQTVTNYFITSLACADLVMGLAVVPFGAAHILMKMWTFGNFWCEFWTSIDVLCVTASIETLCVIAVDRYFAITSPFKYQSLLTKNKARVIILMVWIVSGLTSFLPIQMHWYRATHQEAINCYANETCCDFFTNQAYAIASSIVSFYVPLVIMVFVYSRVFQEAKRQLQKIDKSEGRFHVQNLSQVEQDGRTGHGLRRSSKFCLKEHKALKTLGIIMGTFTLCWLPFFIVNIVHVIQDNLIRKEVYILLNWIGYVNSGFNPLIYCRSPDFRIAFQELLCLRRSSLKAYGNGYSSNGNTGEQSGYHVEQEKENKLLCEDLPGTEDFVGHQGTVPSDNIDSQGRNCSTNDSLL
# FGF22 binding: binders of human FGF22 protein, primary screen, FGF22 synaptogenesis inhibitor project, biophysical, thermal shift, single point; Fibroblast growth factor 22 (Homo sapiens), Q9HCT0; recombinant FGF22 thermal shift, SYPRO orange fluorescence; percent of sucrose octasulfate shift, DMSO zero; calls only at 9.99 µM; 1.5% of 340,000 active;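 active means melting point raised past a set limit in the mean and every replicate; three in four hits are not shown here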
# Target sequence (Q9HCT0 whole entry, looked up): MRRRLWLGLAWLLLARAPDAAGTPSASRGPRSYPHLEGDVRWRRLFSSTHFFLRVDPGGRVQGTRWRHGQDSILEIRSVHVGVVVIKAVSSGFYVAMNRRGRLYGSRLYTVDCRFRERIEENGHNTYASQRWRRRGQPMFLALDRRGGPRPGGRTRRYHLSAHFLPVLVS
# rRNA inh HTS OD600: also measured in rRNA inh HTS; calls as there; OD600 change, %; measured here: OD600 growth;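 optical density of the mix in the first replicate; 0 = DMSO median and -100 = no signal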
# rRNA inh HTS RFP: second read-out of rRNA inh HTS, no call of its own (marks repeat the call); RFP signal change, %; measured here: RFP humanized mutant strains;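 first replicate; 0 = DMSO median and -100 = no signal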
# * hit, by the source's call; i = inactive; / = no result given; & = joins results of further samples.
item	Structure	E coli growth	HNF4A DNA FP	ALR inh	rRNA inh HTS	rRNA inh HTS OD600	rRNA inh HTS RFP	UCH37 inh	B2AR ag	FGF22 binding
1	CCC(=O)c1ccc(OCCN2CCOCC2)cc1	0.61	1.9	-11.4	/	/	/	-0.5	-2.5	/
2	O=C(Cc1cccs1)N1CCC(c2nc3c(nnn3Cc3ccccc3Cl)c(=O)[nH]2)CC1	0.592	-3.8	-2.2	/	/	/	2.4	7.3	/
3	CN(Cc1ccccc1)C(=O)COC(=O)c1c[nH]c2ccccc12	/	1.6	/	-7.6	-15.9	-0.1	/	/	i
4	Cc1ccc(Nc2nc(=O)c3cccnc3s2)cc1	0.688	2.1	-13.1	/	/	/	6.7	-17.1	/
5	CCC(c1nnc(SCC(=O)Nc2cc(S(C)(=O)=O)ccc2Cl)n1Cc1ccccc1)N(C)C (stereo not drawn)	0.686	2.5	-2.7	-0.9	-2.5	1.1	2.1	-13.5	i
6	O=C(CCc1nnc2ccc(NCc3ccco3)nn12)Nc1ccc(F)cc1	0.629	-2.2	3.3	3.1	9.0	2.3	-0.2	0.3	i
7	COc1ccccc1NC(=O)COC(=O)c1ccc(N2CCCC2=O)cc1	0.648	-2.2	-1.1	/	/	/	2.2	2.4	i
8	CN1CCC(=O)N([C@H](CO)c2ccccc2)CC1	/	6.3	/	11.6	13.7	1.6	1.4	-0.6	i
9	Cc1cnc(NC(=O)COc2ccccc2)s1	0.64	2.4	/	/	/	/	2.0	-3.0	/
10	Cc1cccc(NC(=O)CN2CCN(CC(=O)NCc3ccc(Cl)cc3Cl)CC2)c1C	0.658	2.1	/	1.8	-1.1	1.0	5.3	6.0	i
11	COC(=O)COc1ccc(NC(=O)Cn2nc(-c3ccccc3)c3ccccc3c2=O)cc1	0.72	-1.1	1.5	1.3	0.0	-1.8	2.1	10.3	i
12	CCOC1CCCCC1NS(=O)(=O)c1ccc(Cl)cc1 (stereo not drawn)	0.698	6.2	-5.2	10.3	6.1	1.2	3.2	3.6	i
13	O=C(NCc1ccc2c(c1)OCO2)Nc1ccc(F)cc1	0.714	1.2	-2.3	2.3	2.5	0.5	4.7	9.4	i
14	COc1ccc(NC(=O)N(C)C[C@H]2Oc3ccc(NC(=O)C4CC4)cc3CC(=O)N([C@@H](C)CO)C[C@@H]2C)cc1	0.707	-2.3	/	0.8&5.7	3.2&-3.0	-2.5&1.6	2.4	-0.3	i
15	Cc1cccc(N2CCN(C(=O)NC3CCCCC3)CC2)c1C	0.673	1.1	2.2	7.3	10.6	0.5	-0.5	-2.5	i
16	CC(C)C(C)NC(=O)COC(=O)/C=C/c1ccc(S(=O)(=O)N2CCc3ccccc32)cc1 (stereo not drawn)	0.691	5.7	-1.0	0.0	-2.3	1.8	1.7	0.9	i
17	COc1ccc(CN2CCN(Cc3cccc(Oc4ccccc4)c3)CC2)c(OC)c1OC	0.61	1.0	-4.3	-7.7	-17.4	-0.2	-1.1	-0.3	i
18	Cc1ccc(CN(C)CC(=O)Nc2ccc3c(c2)CCC3)cc1	0.631	-1.6	-7.6	-51.9	-73.4	-20.9	6.1	2.2	i
19	COc1cc(C2=CCN(C(C)=O)CC2)ccc1OC(C)=O	0.661	4.3	4.0	/	/	/	2.2	2.7	/
20	COCCn1c(SCC(=O)NNC(=O)c2ccccc2)nc2ccccc2c1=O	0.68	0.3	/	/	/	/	1.5	-4.0	i
21	CCOc1cc(N2CCOCC2)c(OCC)cc1NC(=O)c1c(-c2ccccc2)noc1C	0.66	-1.1	2.5	/	/	/	2.8	3.9	i
22	COCC(=O)Nc1nc2ccccc2s1	0.769	-1.3	0.9	/	/	/	-0.4	0.2	/
23	COc1cc(C(=S)N2CCCC2)cc(OC)c1OS(=O)(=O)c1ccc(NC(C)=O)cc1	0.67	-3.0	-20.4	-8.9	-8.4	-0.5	-0.2	13.6	i
24	CCOc1cc(N2CCOCC2)c(OCC)cc1NC(=O)C(NC(=O)c1c(F)cccc1F)C(C)C (stereo not drawn)	0.688	1.2	/	11.5	7.4	-2.7	-0.8	25.5	i
25	Cc1nc2ccccc2c(=O)n1/N=C/c1ccc(O)cc1	/	2.4	/	3.1	1.9	0.6	/	-11.7	i

# A different layout for some results above:
8. CN1CCC(=O)N([C@H](CO)c2ccccc2)CC1
9. Cc1cnc(NC(=O)COc2ccccc2)s1
10. Cc1cccc(NC(=O)CN2CCN(CC(=O)NCc3ccc(Cl)cc3Cl)CC2)c1C

compound no.	8	9	10
E coli growth	/	0.64	0.658
HNF4A DNA FP	6.3	2.4	2.1
ALR inh	/	/	/
rRNA inh HTS	11.6	/	1.8
rRNA inh HTS OD600	13.7	/	-1.1
rRNA inh HTS RFP	1.6	/	1.0
UCH37 inh	1.4	2.0	5.3
B2AR ag	-0.6	-3.0	6.0
FGF22 binding	i	/	i

# Later entries
cpd	Compound	E coli growth	HNF4A DNA FP	ALR inh	rRNA inh HTS	rRNA inh HTS OD600	rRNA inh HTS RFP	UCH37 inh	B2AR ag	FGF22 binding
26	CC(=O)Nc1ccc(Sc2ncccc2C(=O)Nc2ccc(F)cc2)cn1	0.706	-4.2	-2.8	16.4	12.6	5.0	8.1	4.2	i
27	Cc1cc(C(=O)COC(=O)c2ccc(O)cc2O)c(C)n1C(C)C	0.733	2.5	2.5	-28.9	-29.0	-2.1	-1.9	0.1	i
28	CS(=O)(=O)NCc1nnc(SCc2ccc(C(F)(F)F)cc2)o1	0.697	3.0	-2.0	11.5	5.8	-0.7	3.8	-1.4	i
29	O=C(OCc1ccccc1)N1C[C@H](O)[C@H](O)C[C@@H]1c1c(Cl)cccc1Br	/	-3.4	/	-40.2	-57.1	0.1	/	/	i
30	CCN(CC(=O)Nc1ccc(NC(C)=O)cc1)C(=O)c1oc2c(ccc3ccccc32)c1C	/	4.0	-4.6	-7.5	-7.4	3.6	/	-1.5	i
31	CC(=O)Nc1sc(N/N=C\c2ccc(O)cc2)nc1-c1cccs1	/	7.6	91.3*	8.5	11.1	8.1	/	1.3	i
32	O=C(c1ccccc1)N1CCN(C2CC(=O)N(CCc3ccccc3)C2=O)CC1 (stereo not drawn)	0.674	0.4	-1.4	-2.5	-3.9	-5.6	-0.9	10.4	/
33	O=C(O)Cc1csc(-c2cccc(F)c2)n1	0.71	5.8	-7.1	4.1	5.6	-0.4	0.8	5.7	i
34	Cc1cccc(OCCSc2nncn2C)c1	0.702	-0.1	-6.1	2.5	1.5	0.7	2.1	-0.3	i
35	CC(C)n1c(C(O)c2ccc3c(c2)OCO3)nc2ccccc21 (stereo not drawn)	0.697	-3.4	-1.1	/	/	/	2.5	2.6	/
36	CCC(C)N(C(=O)Cn1nnc2ccccc21)C(C(=O)Nc1ccc(F)cc1)c1cccc(OC)c1 (stereo not drawn)	0.664	0.0	-2.0	/	/	/	5.1	5.3	/
37	CCC(=O)N1C(C(=O)NCc2ccc(OC)cc2)CSC1c1ccc(OC)cc1 (stereo not drawn)	0.748	1.2	-66.2	-3.9	0.1	-2.8	3.2	0.1	i
38	Cc1nn2c(NCc3ccccn3)c3c(nc2c1-c1ccccc1)CCC3	/	-0.3	-1.4	-29.0	17.5	23.6	/	-13.3	i
39	CCCc1cc(C(=O)Nc2cccc(-c3nn[nH]n3)c2)sc1C	/	1.2	/	-31.1	-41.7	-7.1	/	/	i
40	CCOc1cc(-c2nc(-c3ccc(C)nc3OC)no2)cc(OCC)c1OCC	0.712	4.6	/	/	/	/	-0.4	5.7	/
41	O=C(COC(=O)c1cncc(Br)c1)NCc1ccccc1Cl	0.68	2.5	-9.3	19.2	21.8	5.4	-0.8	-0.2	i
42	CC1CC(=O)C2=C(C1)OC(N)=C(C#N)C2c1coc2ccccc2c1=O (stereo not drawn)	0.716	3.5	16.1	/	/	/	4.0	-0.6	/
43	COc1ccc(CNC(=O)c2sc(=O)n(Cc3cc(Cl)ccc3OC)c2C)cc1	/	-1.3	/	-13.2	-11.2	-3.4	/	/	i
44	O=C(Nc1ccc(N2CCOCC2)cc1)c1cn2ccccc2n1	0.685	-0.3	-3.5	/	/	/	-0.7	-11.2	/
45	CCOC(=O)COc1ccc(S(=O)(=O)NCc2ccncc2)cc1	0.663	-0.6	-16.4	/	/	/	1.0	9.2	/

# Some values from above.
# entry 37 in rRNA inh HTS OD600 shows 0.1
# entry 43 in HNF4A DNA FP shows -1.3
# entry 41 in rRNA inh HTS OD600 shows 21.8

# More results.
cpd	Compound	E coli growth	HNF4A DNA FP	ALR inh	rRNA inh HTS	rRNA inh HTS OD600	rRNA inh HTS RFP	UCH37 inh	B2AR ag	FGF22 binding
46	FC(F)(F)c1ccccc1NC(=S)N1CCN(c2ccccn2)CC1	0.699	1.8	/	-16.4	-7.0	-8.5	4.7	-7.2	i
47	O=C(CSc1ccc(Br)cc1)NCC1CCCO1 (stereo not drawn)	0.645	0.3	-5.6	2.2	-2.5	1.4	1.0	-3.7	i
48	COc1ccccc1Nc1ccc(NC(=O)c2cccc([N+](=O)[O-])c2C)cc1	0.664	1.2	-0.2	-10.7	-13.5	-1.9	5.3	6.9	i
49	CN1CCN(C(=O)c2ccc(Cc3cn(C)c4ccccc34)nc2)CC1	/	0.1	/	19.5	12.4	1.4	/	/	i
50	CS/C(=C\[N+](=O)[O-])Nc1ccc(OC(F)(F)F)cc1	0.672	3.0	55.8	-0.5	1.1	1.1	1.0	1.5	i
51	Cc1noc(C)c1COc1cccc(C(=O)Nc2ccc(OCc3ccccc3)cc2)c1	0.723	-1.5	0.0	/	/	/	1.4	-3.0	/
52	COc1ccc(NC(C)=O)cc1NC(=O)c1cccc(S(=O)(=O)N2CCN(Cc3ccccc3)CC2)c1	/	-2.3	-9.9	-9.1	-9.3	0.4	/	-1.0	i
53	CCOC(=O)N1CCN(C(=O)CCc2ccccc2)CC1	0.699	1.8	-2.9	11.9	11.5	-0.7	-1.5	-3.4	i
54	CC(C)C1N(C(=O)CN2CCCCC2)CCN1S(=O)(=O)c1ccccc1 (stereo not drawn)	0.684	1.6	-5.1	20.1	20.6	1.0	5.0	-4.3	i
55	CCOC(=O)c1cc([N+](=O)[O-])cc([N+](=O)[O-])c1Sc1ncnc2nc[nH]c12	/	-1.9	/	9.9	9.9	-1.7	/	39.0	i
56	O=C(O)c1sc(C(=O)O)c(-c2ccccc2)c1-c1ccccc1	/	0.3	/	2.7	19.1	-5.4	/	/	i
57	COc1cc(/C=N/NC(=O)c2cccc3ccccc23)ccc1OCC(N)=O	/	3.3	-16.4	13.4	5.6	1.4	/	-4.5	i
58	COc1cccc(-n2nnc3c(=O)n(CC(=O)NCC4CCCO4)cnc32)c1 (stereo not drawn)	0.732	-4.0	6.7	-1.0	-5.9	-1.8	6.4	-0.3	i

# Not all compounds are listed. The share of hits here may be higher or lower than overall.
